P. yoelii liver = exo-erythrocytic parasite development inhibition – imaging, Malaria Box, P. yoelii, HepG2-A16-CD81EGFP, dose response (AID 602156); P. yoelii liver stage in HepG2-A16-CD81EGFP, imaging; first-round cut-off not given here; calls after a first round at 10 µM; hits with a dose series show IC50 in µM; actives 4.8% (n = 5,700); in the data active = a potency from the dose series;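 also: infected cells exposed to compound for 48 hours before fixation; stained parasite area by imaging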
An asterisk follows results filed as active; i = inactive.

P. yoelii liver	compound
i	O=C(Nc1ccc(Br)cc1C(=O)c1ccccc1)c1cc2nc(-c3cccs3)cc(C(F)(F)F)n2n1
i	CN(C)c1ccc(/C=C/c2cccc[n+]2C)cc1
i	CC1(C)Oc2ccc3ccc(=O)oc3c2CC1=NNC(N)=S
i	COc1ccc(OC)c(-c2ccc(O)c(CNCC(C)C)c2)c1
i	CC(CCCO)Nc1ccnc2cc(Cl)ccc12 (centres undefined)
i	CC(C)(C)c1ccc(Cn2nnc3c(=O)[nH]c(C4CCN(C(=O)c5ccccc5)CC4)nc32)cc1
i	CCOc1ccc2cc(C#N)c(SCC(=O)N3CC(=O)Nc4ccccc43)nc2c1
i	CCOC(=O)c1sc(NC(=O)C(C)Sc2nnc(CNC(=O)c3ccc(OC)cc3)n2-c2ccccc2OC)c(C(=O)OCC)c1C (centres undefined)
i	CCCC(c1nnnn1C1CCCCC1)N1CCN(C(=O)c2ccco2)CC1 (centres undefined)
i	CC[n+]1c(C=C2Sc3cc(C)ccc3N2CCO)ccc2ccccc21
i	CCC(O)CN(c1ccccc1)c1ccccc1 (centres undefined)
i	O=C(OC(C(=O)NCc1ccco1)c1ccc(F)cc1)c1ccco1 (centres undefined)
i	COc1cc(C(=O)N2C(C(=O)Nc3ccccc3F)CSC2c2ccc(C(C)(C)C)cc2)cc(OC)c1OC (centres undefined)
i	COc1ccc(C(=O)N2C(C(=O)NCCC(C)C)CSC2c2ccc(C(C)(C)C)cc2)cc1 (centres undefined)
i	N#Cc1ccccc1CN1CCC(Oc2cccc3onc(N)c23)CC1
i	O=C(Nc1cc(C(=O)N2CCC(Cc3ccccc3)CC2)ccc1N1CC2CC(C1)c1cccc(=O)n1C2)c1cccs1 (centres undefined)
i	N=c1c2c(n(Cc3ccc(Cl)cc3)c3c1CCC3)CCCC2
i	COC(=O)c1cn([C@H]2C[C@@H](C(=O)NCc3ccc(OC)cc3)N(Cc3ccsc3)C2)nn1
i	CCCCCCCCC(=O)Nc1c(C)cccc1C
i	Cc1ccc(O)c(NC(=O)c2cnn3c(C(F)(F)F)cc(-c4ccc(F)cc4)nc23)c1
i	COc1ccc(C=NNc2cc(C)nc(-c3ccccc3)n2)cc1OC
i	COc1ccccc1C(=O)NC1CCN(CC(O)CN(Cc2ccccc2)S(=O)(=O)c2ccccc2)C1 (centres undefined)
i	CCC(Sc1nc2ccccc2n1C(C)=O)C(=O)NC1=NN=C(c2ccc(Br)cc2)CS1 (centres undefined)
i	O=c1cc(NC2CCN(CCCc3ccccc3)CC2)c2cc(Cl)ccc2o1
i	C[n+]1c2ccccc2nc2ccc(NC3CCCCC3N)cc21 (centres undefined)
i	CN1CCC(N[C@@H]2C[C@@H](C(=O)N3CCN(c4cccc(C(F)(F)F)c4)CC3)N(Cc3ccccc3Cl)C2)CC1
2.5µM*	CSc1nnc(-c2cccc([N+](=O)[O-])c2)n1Cc1ccccc1
i	Cc1cccnc1NC(=O)CCCC(=O)O
i	CCCN1CCc2c(sc3nc(SCC(=O)c4ccccc4)nc(N)c23)C1
0.0071µM*	CN(Cc1ccccc1)C(=O)CSc1nc(NCc2ccccc2)c2ccccc2n1
i	Nc1nc(N)c2cc(S(=O)(=O)N3CCCCC3)ccc2n1
i	CC(C)CNC(=O)c1cnc(NCCCn2ccnc2)nc1NC1CCCC1
i	O=C(NCCCCCCCCNC(=O)Nc1ccc(C2=NCCN2)cc1)Nc1ccc(C2=NCCN2)cc1
i	CCOc1ccc(NC(=O)c2ccc(F)c(S(=O)(=O)NC3CCCC(C)C3C)c2)cc1 (centres undefined)
i	Cc1cc2cc(C3C(C#N)=C(N)Oc4c3ccc3ccccc43)c(Cl)nc2cc1Cl (centres undefined)
i	COc1cc2nc(Nc3cccc(F)c3)nc(N)c2cc1OC
i	CCC(c1nc2ccccc2c(=O)n1-c1cccc(Cl)c1)N(CCC(C)C)C(=O)COCc1ccccc1 (centres undefined)
i	CC(NC(=S)N(Cc1ccco1)Cc1cc2cc3c(cc2[nH]c1=O)OCO3)c1ccccc1 (centres undefined)
i	COc1ccccc1N1C(=N)SC(=Cc2ccc(OCc3ccccc3F)cc2)C1=O
i	N#CC(=Cn1cc(Cc2ccc(Cl)cc2Cl)c2ccccc21)c1nn(CCO)c(N)c1C#N

Records above shown as hits in P. yoelii liver.
P. yoelii liver	compound
2.5µM*	CSc1nnc(-c2cccc([N+](=O)[O-])c2)n1Cc1ccccc1
0.0071µM*	CN(Cc1ccccc1)C(=O)CSc1nc(NCc2ccccc2)c2ccccc2n1

Exported as a markdown table: entries from further up.
| Molecule | P. yoelii liver |
| --- | --- |
| CCCC(c1nnnn1C1CCCCC1)N1CCN(C(=O)c2ccco2)CC1 (centres undefined) | i |
| CC[n+]1c(C=C2Sc3cc(C)ccc3N2CCO)ccc2ccccc21 | i |
| CCC(O)CN(c1ccccc1)c1ccccc1 (centres undefined) | i |

Going on with the list.
P. yoelii liver	compound
i	CCOC(=O)C1=C(CC)NC2=C(C(=O)CC(C)(C)C2)C1c1ccccc1F (centres undefined)
i	Cc1ccc(Cl)cc1Nc1nc2ccccc2n2c(C)nnc12
i	O=C(C1CCN(C(c2ccc(F)cc2)c2ccc(F)cc2)CC1)N1CCCC1
i	COc1ccc(CCNc2nc(NCCCN(C)C)ncc2C(=O)NCc2ccccc2)cc1OC
i	CCOc1ccc2[nH]c(=O)c(CN(CCN3CCCC3)C(=S)Nc3ccc(F)cc3)cc2c1
i	NCCCNC(=O)COC(c1ccccc1)c1cccnc1Cl (centres undefined)
i	COc1ccc(/C=C/C(=O)Nc2ccc3nc(N4CCN(C)CC4)cc(C)c3c2)cc1OC
i	Cc1[nH]c2ccccc2c1/C=C/c1cc[n+](C)cc1
i	CCOc1ccc(C2=NC3(CCN(C(C)C)CC3)NC(c3cc(Cl)ccc3O)C2)cc1 (centres undefined)
i	COc1ccc(S(=O)(=O)N2CCC(c3nnc(-c4ccccc4OC)o3)CC2)cc1
i	Cc1ccc2cc3c(N)c4c(C)ccc(C)c4nc3nc2c1
i	Cc1ccc(-c2cc(C(F)(F)F)n3ncc(C(=O)Nc4cc(Cl)ccc4O)c3n2)cc1
i	Cn1c(=O)c2c(nc(N3CCN(C(=O)Nc4ccc(F)cc4F)CC3)n2C)n(C)c1=O
i	CN(C)c1ccc(C=CC(=O)NC(=O)c2ccccc2O)cc1
0.33µM*	CCN(CC)CCCNc1nc2cc(OC)c(OC)cc2c2nc(-c3ccccc3)nn12
i	COc1ccc(-c2nc(SCCCCC(=O)N3CCN(C(c4ccccc4)c4ccccc4)CC3)[nH]c2-c2ccc(OC)cc2)cc1
i	CSC1=NC(=Nc2ccccc2C)C2(CCC(C(C)(C)C)CC2)N1c1ccc(O)cc1 (centres undefined)
i	O=[N+]([O-])c1cc([N+](=O)[O-])c2cccnc2c1Nc1cccc2cccnc12
i	Oc1ccc(-c2ccc3c(c2)OCO3)cc1CNC12CC3CC(CC(C3)C1)C2
i	CCOC(=O)C1CCN(C(=O)C(=O)Nc2ccc3nc4n(c(=O)c3c2)CCCCC4)CC1

Compounds above that have a nitro group on carbon:
P. yoelii liver	compound
2.5µM*	CSc1nnc(-c2cccc([N+](=O)[O-])c2)n1Cc1ccccc1
i	O=[N+]([O-])c1cc([N+](=O)[O-])c2cccnc2c1Nc1cccc2cccnc12

More records:
P. yoelii liver	compound
i	Cc1cc(Nc2ccc(C)c(Cl)c2)n2ncnc2n1
i	O=C(O)c1cccc(NC(=O)c2ccc(N3C(=O)c4ccc(C(=O)Nc5cccc(C(=O)O)c5)cc4C3=O)cc2)c1
i	Cc1ccc(C(C(=O)NC2CCCCC2)N(C(=O)c2ccc(-c3ccccc3)[nH]2)c2ccc(C3CCCCC3)cc2)o1 (centres undefined)
i	COc1ccc(-c2nnc(NC(=O)CCN(CCc3ccc(OC)c(OC)c3)C(=O)c3cccc4ccccc34)s2)cc1
0.08µM*	CCC1CN2CCc3cc(OC)c(OC)cc3C2CC1CC1NCCc2cc(OC)c(OC)cc21 (centres undefined)
i	CCCCNc1c2c(c(C#N)c3nc4ccccc4n13)CCC2
i	O=c1nc(C=Cc2ccc(Cl)cc2)oc2ccccc12
i	CCOc1cc(S(=O)(=O)N2CCCC3(CCCCC3)C2)c(OCC)cc1-n1cnnn1
i	OC(COc1ccc(OCC(O)CN2CCN(C3c4ccccc4-c4ccccc43)CC2)cc1)CN1CCN(C2c3ccccc3-c3ccccc32)CC1 (centres undefined)
i	OCCc1cn(-c2ccccc2)c2ccccc12
i	CON(C)C=C(C(=O)Nc1ccc(C(F)(F)F)cc1)C(=O)Nc1ccc(C(F)(F)F)cc1
i	CC(=O)NC(=Cc1ccc(OC(F)F)cc1)C(=O)O
i	CCOc1ccc(NC(=O)CSc2nc3ccc(OCC)cc3[nH]2)cc1
i	O=C1C(N2CCCCC2)=C(N2CCOCC2)C(=O)c2ccccc21
i	Cc1ccc(S(=O)(=O)N2CCN(C(=O)c3ccccc3)C2c2ccccc2)cc1 (centres undefined)
i	CN(CCCNc1ccnc2cc(Cl)ccc12)C(=O)CCc1ccccc1
i	C=CCn1c(COc2ccccc2C)nnc1SCC(=O)O
i	N[C@@H](COP(=O)(O)O)C(=O)O
i	CN(CCCNc1ccnc2cc(Cl)ccc12)S(=O)(=O)c1cccc2cccnc12
i	CCN1C(=Cc2cccc[n+]2C)C=Cc2cc(C)ccc21

Grouped by structure, the compounds so far with a tert-butyl group (4)
P. yoelii liver	compound
i	CC(C)(C)c1ccc(Cn2nnc3c(=O)[nH]c(C4CCN(C(=O)c5ccccc5)CC4)nc32)cc1
i	COc1cc(C(=O)N2C(C(=O)Nc3ccccc3F)CSC2c2ccc(C(C)(C)C)cc2)cc(OC)c1OC (centres undefined)
i	COc1ccc(C(=O)N2C(C(=O)NCCC(C)C)CSC2c2ccc(C(C)(C)C)cc2)cc1 (centres undefined)
i	CSC1=NC(=Nc2ccccc2C)C2(CCC(C(C)(C)C)CC2)N1c1ccc(O)cc1 (centres undefined)

Going on with the list.
P. yoelii liver	compound
i	COc1ccc(CN2CC(=O)N(c3ccc(Cl)cc3)C2=S)cc1OC
i	c1ccc(-c2ccccc2OCCNCCN2CCOCC2)cc1
i	OCCN(CCO)CC(O)Cn1c2ccc(Br)cc2c2cc(Br)ccc21 (centres undefined)
i	O=C(NCC1CCCO1)c1ccc([N+](=O)[O-])cc1Cl (centres undefined)
i	CCN(CC)CCCNC(=S)N(CCN(C)C)Cc1cc2cc(C)cc(C)c2[nH]c1=O
i	CC1CCCCN1CCCNc1ncc(C(=O)NCc2ccccc2)c(NCCc2ccccc2)n1 (centres undefined)
i	CCOC(=O)c1c(C)[nH]c(C)c1S(=O)(=O)N1CCCC(C(=O)N2CCN(c3cc(C)ccc3C)CC2)C1 (centres undefined)
i	CC(C)N1CC[C@@H](N2CCN(c3cccc(C(F)(F)F)c3)CC2)[C@@H](CCC(=O)N(C)C2CCN(C)CC2)C1
i	NNc1nc(NCc2ccccc2)nc(N2CCOCC2)n1
i	CC(C)CN1CCC(O)(c2ccc3oc(C(=O)Nc4ccc5c(c4)OCO5)cc3c2)CC1
i	O=C(c1ccc2nc(N3CCCCC3)sc2c1)N1CCN(Cc2ccc3c(c2)OCO3)CC1
i	COc1ccccc1-n1c(C(C)N(C)C(=O)Nc2ccccc2F)nc2ccccc2c1=O (centres undefined)
i	CCOC(=O)C1=C(CC)NC2=C(C(=O)CC(C)(C)C2)C1c1ccc(Br)cc1 (centres undefined)
i	N#CC(c1ccc(C(F)(F)F)cc1)c1ccc2c(C(F)(F)F)cc(C(F)(F)F)nc2n1 (centres undefined)
i	COc1ccc(CN2CCN(C(=O)c3cccnc3)CC2)cc1OC
i	CCN(CC(=O)N1CCc2cc(OC)c(OC)cc2C1C)C(=O)Nc1ccc(Br)cc1 (centres undefined)
i	CC1[C@H]2NC[C@H](C)C[C@]2(O)O[C@@H]2C[C@H]3[C@@H]4CC[C@H]5C[C@@H](N)CC[C@]5(C)C4CC[C@]3(C)[C@@H]12 (some centres undefined)
i	O=C1CSc2nc3ccccc3n21
i	COc1ccc(CCN2C(=O)CC(C(=O)Nc3cccc(Cl)c3)SC2=Nc2ccccc2)cc1OC (centres undefined)
i	CCCCCCN(C(=O)c1ccc(C(C)(C)C)cc1)C(CC)c1nc2ccccc2c(=O)n1-c1ccccc1OC (centres undefined)
i	O=C1CN(C(=O)CCC2CCCC2)C(c2ccc(F)cc2)c2cc(F)ccc2N1 (centres undefined)
i	CCn1c(C=CN(C)c2ccccc2)[n+](CC)c2ccc(Cl)cc21
i	Cc1ccc(C(CCNc2ncnc3c2[nH]c2ccccc23)c2ccco2)cc1 (centres undefined)
i	COC(=O)c1ccc(C2C3=C(CC(c4cccs4)CC3=O)Nc3ccccc3N2C(=O)c2ccccc2)cc1 (centres undefined)
i	Cc1ccc(-n2c(SCc3cccc(C)c3)nnc2C(Cc2ccccc2)NC(=O)NC(C)(C)C)cc1 (centres undefined)
i	CC(C)(c1ccc(Oc2ccc(NC(=O)C(F)(F)F)cc2)cc1)c1cccc(Oc2ccc(NC(=O)C(F)(F)F)cc2)c1
i	Oc1ccc(Cl)cc1CNc1nc2ccccc2[nH]1
i	CCCCOC(=O)Cc1ccc(N)cc1
i	O=C1C(=O)N(Cc2ccccc2[N+](=O)[O-])c2ccccc21
i	Cc1ccc(OCCCCCCNCCO)c(C)c1
i	COc1ccc(CCN2C(=O)N(CCN(C)C)C(=O)C23CCN(Cc2ccc(O)cc2)CC3)cc1
i	CCc1ccc(NC(=O)CSc2nc(C)cc(C)c2C#N)cc1
i	Cc1ccc(N=C2C(=O)Nc3ccc(C)c(Br)c32)c(O)c1
i	O=C(NCc1ccco1)C1CCN(S(=O)(=O)c2ccc(Br)cc2)CC1
i	O=C(Cn1c2ccccc2c(=O)c2ccc(Cl)cc21)Nc1ccc(C(F)(F)F)cc1
0.1µM*	CCOc1ccc(Nc2nc(NCc3ccco3)c3ccccc3n2)cc1
i	COc1cccc(-c2ccc(O)c(CNC3CCN(Cc4ccccc4)CC3)c2)n1
i	Cc1cc(Nc2ccc(Cl)c(Cl)c2)n2nc(C)nc2n1

These rows are one share of the data (hit frequency here may not be typical).
